MgrA-DNA mod: S. aureus MgrA activity modulators, primary screen, biochemical, S. aureus Newman, fluorescence polarization | MgrA-DNA binding | inhibition, %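 (about 10 µg/mL by stock and volumes)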 | 0.13% of 84,000 active;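 active = above 50% in either of two replicates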;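 also: 0% = protein plus DNA without compound and 100% = DNA alone without protein; higher means less MgrA bound to DNA so lower polarization; one replicate is shown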
S aureus helic: inhibitors of S. aureus replicative helicase, primary screen, biochemical, fluorescence unwinding readout | purified S. aureus helicase, fluorescence unwinding assay; about half of the hits fall short of the stated cut | inhibition, %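 (tested at about 80 µM)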 | 0.05% of 120,000 active;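 active = both duplicates at 50% or more, or one of them with a favoured structure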;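 also: 0% = mean of negative control wells and 100% = mean of positive control wells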
* = called active by the depositor; · = not tested or not shown; & = joins results of further samples. Some of the compounds tested, so the mix of outcomes need not match the whole.

SMILES | MgrA-DNA mod | S aureus helic
CCOC(=O)C1CCN(C2CC(=O)N(c3ccc(N4C(=O)CC(N5CCC(C(=O)OCC)CC5)C4=O)cc3)C2=O)CC1 (stereo not drawn) | 0.5 | 14
S=C(NCCc1ccccc1)N1CCC2(CC1)OCCO2 | -0.2 | 5
Cc1ccc(/C=C/C(=O)N2CCN(C(=O)/C=C/c3ccc(C)o3)CC2)o1 | · | -1
COc1cccc(-n2cc(C(=O)NCc3cccnc3)c3ccccc3c2=O)c1 | · | -20
Cn1c(CO)nc2cc(Cl)ccc21 | 1.3 | -17
O=C1C2CC=CCC2C(=O)N1c1ccccc1 (stereo not drawn) | 1.9 | 15
O=C(CCSc1cccs1)Nc1cccc(C(F)(F)F)c1 | 0.6 | ·
CC(=C1C(=O)c2ccccc2C1=O)N1CCN(c2ccccn2)CC1 | -2.2 | 1
CCCCSc1ncc(C(=O)OCC)c(N)n1 | 0.9 | 9
O=S(=O)(Nc1ccc(O)c(Sc2ncn[nH]2)c1)c1ccccc1 | 4.7 | 9
CC(C)OC(=O)c1c(F)c(F)c(F)c(F)c1F | -0.8 | 7
O=C(Cc1cccs1)NCC(c1ccco1)N1CCCCC1 (stereo not drawn) | · | -5
O=C(NCCN1CCNC1=O)c1ccc2nccnc2c1 | -1.3 | ·
c1ccc2sc(NC3=NCN(CCN4CCOCC4)CN3)nc2c1 | -3.4 | -1
NCCCSc1nc(C2CC2)n(-c2ccccc2)n1 | · | -4
CCC(c1nnc(SCC(=O)Nc2cc(C)on2)o1)N(C)C (stereo not drawn) | · | 10
O=C(CSc1ncn[nH]1)Nc1ccc(N2CCOCC2)cc1 | 4.7 | 11
O=C(NCC1CCNCC1)/C(=N/O)c1ccccc1 | 0.9 | 12
CS(=O)(=O)c1ccc(Cl)c(Cl)c1 | -0.9 | 3
CNC(=O)c1cnc2sc(N3CCCC3)nn2c1=O | · | -4
CN[C@@H]1C(OC2[C@H](O[C@H]3[C@H](O)[C@@H](O)[C@H](N=C(N)N)[C@@H](O)[C@@H]3N=C(N)N)OC(C)[C@]2(O)CO)OC(CO)C(O)C1O (stereo partly drawn) | 1.1 | ·
CCCc1ccno1 | · | 6
CC(C)c1ccc(NS(=O)(=O)Cc2ccccc2)cc1 | 2.5 | -11
COc1cccc(NC(=O)C2CC(=O)N(Cc3ccco3)C2)c1 (stereo not drawn) | · | 8
CCOc1cc(-c2ccc3c(c2)OCO3)cc(=O)c2c(C)oc(C)c12 | · | 8
SMILES | MgrA-DNA mod | S aureus helic
NNc1nc(-c2ccccc2)cc(-c2ccccc2)n1 | -0.6 | 7
O=c1ccc(=O)n(CNc2nccs2)[nH]1 | -0.2 | 8
COc1ccc(C2SC[C@H]3C(=O)N(c4ccccc4)C(=S)N23)cc1 (stereo partly drawn) | 1.1 | -7
CNc1cc(C#N)c2cc(Br)ccc2n1 | -2.0 | ·
O=C(CNC(=O)c1ccco1)Nc1ccc(Br)cc1 | -0.8 | -3
COc1ccc(NC(=O)N2CCN(Cc3ccccc3Cl)CC2)cc1 | 2.5 | -18
Cc1onc(-c2ccccc2Cl)c1C(=O)OC(c1ccccc1)C(F)(F)F (stereo not drawn) | 1.9 | 10
COc1ccccc1NC(=O)CN(Cc1ccco1)C(=O)Cn1nc(C(N)=O)c2ccccc2c1=O | · | 6
CCOc1ccc(OCCOn2nnc3ccccc32)cc1 | · | -8
FC(F)(F)Oc1ccc(-c2nnc(-c3ccccc3Cl)o2)cc1 | · | 19
N#CSc1cnc(NC2CCCCC2)s1 | 16 | -2
CC(C)CN(CC(C)C)C(=O)COc1ccccc1C(N)=O | · | 12
CCCN(CCC)c1nc(SC)nc(-c2ccccc2)c1C#N | · | -26
Fc1ccc(-c2nnc(N3CCOCC3)c3ccccc23)cc1 | · | 2
CCCNC(=O)Nc1cc(S(=O)(=O)CC)ccc1O | 0.4 | ·
COc1ccc(CCNC(=S)NC(=O)c2ccc(Cl)cc2Cl)cc1OC | -0.9 | ·
CCc1ccccc1NC(=O)C1CCN(S(=O)(=O)c2cc(OC)ccc2OC)CC1 | 3.1 | 10
CCCc1cc(=O)[nH]c(SCC(=O)N2CCCC2=O)n1 | · | -22
Cc1cc(C)n(N)c(=O)c1C#N | · | -9
CCOc1ccc(OCCCN2CCN(C)CC2)cc1 | -0.4 | -9
COc1ccc(C(=O)Nc2ccc3oc(-c4ccccc4Br)nc3c2)cc1 | -0.8 | ·
OCC(O)C1OC(Nc2ccc(Br)cc2)C(O)C1O (stereo not drawn) | · | -22
Cc1ccc2cc(CCNC(=O)c3ccc(F)c(F)c3)c(=O)[nH]c2c1C | · | -11
CCCN1c2ccccc2S(=O)(=O)c2ccccc21 | · | -7
CC(C)(C)NC(=O)C1CC(=O)OC12CCCCC2 (stereo not drawn) | 0.8 | 5

A draw from above in order of molecular weight, ascending:
SMILES | MgrA-DNA mod | S aureus helic
CC(C)(C)NC(=O)C1CC(=O)OC12CCCCC2 (stereo not drawn) | 0.8 | 5
CC(C)OC(=O)c1c(F)c(F)c(F)c(F)c1F | -0.8 | 7
O=C(NCCN1CCNC1=O)c1ccc2nccnc2c1 | -1.3 | ·
CCCc1cc(=O)[nH]c(SCC(=O)N2CCCC2=O)n1 | · | -22
O=C(Cc1cccs1)NCC(c1ccco1)N1CCCCC1 (stereo not drawn) | · | -5
O=C(CCSc1cccs1)Nc1cccc(C(F)(F)F)c1 | 0.6 | ·
OCC(O)C1OC(Nc2ccc(Br)cc2)C(O)C1O (stereo not drawn) | · | -22

(cont.)
SMILES | MgrA-DNA mod | S aureus helic
COCCn1c(SC(C)C)nnc1-c1c[nH]c2ccccc12 | · | 18
COc1ccccc1C(=O)N(c1ccccc1)C(C)C1CC1 (stereo not drawn) | 3.5 | -1
Cc1ccc(-n2ncc3c(=O)[nH]c(SCc4ccccc4)nc32)cc1 | 1.4 | -13
CN(Cc1ccccc1)C(=O)c1cnn(-c2ccccc2)c1-n1cccc1 | -1.1 | 8
CCCCCN1COc2ccc3c4c(c(=O)oc3c2C1)CCC4 | · | 19
O=S1(=O)CCN(Cc2cccnc2)CC1 | 1.2 | ·
CC1CCc2c(sc3nc(CN4CCOCC4)nc(Sc4nccn4C)c23)C1 (stereo not drawn) | · | -9
CC1CCCCN1C(=O)c1ccco1 (stereo not drawn) | · | 6
O=C(O)CC(NS(=O)(=O)c1ccc(Br)cc1)c1ccccc1 (stereo not drawn) | · | 11
CC(C)(C)c1cc(C(F)(F)F)nc(SCCCNC(=O)c2ccco2)n1 | 0.4 | 5
CSc1nnc(-c2ccc(S(=O)(=O)N3CCCCC3)s2)n1C | -0.3 | ·
N#CC1=C(SCC(N)=O)NC(=O)C(C#N)C1c1ccccc1Cl (stereo not drawn) | · | 1
O=C(O)CC(c1ccc(Br)cc1)n1cccc1 (stereo not drawn) | -2.2 | ·
O=C(CS(=O)(=O)c1cn(CC(=O)N2CCCC2)c2ccccc12)NCc1ccccc1 | · | 5
CCOC(=O)N1CCC(N(CCN(C)C)C(=S)Nc2cc(C)ccc2C)CC1 | · | 8
COc1ccc(N=C/C(Br)=C/c2ccccc2)cn1 | 1.2 | -41
O=C(CCSc1nc(-c2ccco2)cc(C(F)(F)F)n1)Nc1ccccc1 | 3.5 | 7
c1ccc(Oc2nnc(Oc3ccccc3)c3ccccc23)cc1 | -1.7 | ·
S=C1NCN(CCCn2ccnc2)CN1 | -0.7 | 4
COc1ccc(/C=C2\CCc3ccccc3C2=O)cc1CN1CCOCC1 | 1.3 | 9
CCCc1c(O)nc(SCC(=O)O)[nH]c1=O | · | 10
O=C(COC(=O)c1ccccc1SCC(=O)N1CCCC1)NCc1ccco1 | · | 3
O=C1CC(c2nc3ccccc3[nH]2)CN1c1cccc(C(F)(F)F)c1 (stereo not drawn) | · | 4
O=C(c1nc2ncccn2n1)N(Cc1ccccc1)Cc1ccccc1 | 2.8 | 13
CC(=O)Cn1cnc2sc(-c3ccccc3)cc2c1=O | -1.0 | ·
SMILES | MgrA-DNA mod | S aureus helic
COc1ccc(/C=C2/NC(=O)N(Cc3ccccc3F)C2=O)cc1 | · | -28
CCC1CCCCN1C(=O)CSc1nnc(-c2cccs2)o1 (stereo not drawn) | · | 27
C=C1N(c2cccc(Cl)c2)C(=O)OC1(C)C | · | 13
Cc1cc(N2CCC(N(C)C3CCCC3)CC2)nc2cc(O)ccc12 | · | 9
CCOc1ccc(CCNC(=O)c2cccnc2N2CCCC2)cc1OCC | 4.0 | 4
O=S(=O)(Nc1ccc(N2CCCCC2)cc1)c1ccccc1 | -1.2 | ·
CN(C)c1ccc(/C=N/N=C(N)N)cc1 | 1.4 | 23
O=C(COC(=O)c1c[nH]c(=O)[nH]c1=O)NCc1ccccc1 | · | 14
Cc1[nH]c2ccccc2c1C(=O)CSc1ccccn1 | 1.6 | 5
O=C(CS(=O)(=O)CC(=O)c1ccccc1)c1ccccc1 | · | -1
S=c1nn[nH]n1C1CCCC1 | -1.6 | 10
COc1ccc(C)cc1NC(=O)N1CCC(C)CC1 | 1.7 | 11
Nc1cccc2c(S(=O)(=O)N3CCOCC3)cccc12 | -2.9 | ·
CCCCNc1nc2cccnc2s1 | · | -23
O=C(CSc1nc2ccccc2s1)c1ccc2c(c1)OCO2 | · | -13
CNC(=O)N(O)c1ccccc1 | 1.6 | 4
COc1ccc(NCC(=O)n2c3ccccc3c3ccccc32)cc1 | 0.6 | 8
S=C(NCc1ccco1)Nc1nn(Cc2ccc(Cl)cc2Cl)cc1Cl | 1.1 | -12
COC(=O)c1ccc(CN(c2ccccc2OC)S(=O)(=O)c2cccs2)o1 | · | 2
COC(=O)CCCN | · | 2
Cc1cc(SCC2=NNC(=O)/C2=C/N(C)C)c(C)cc1Cl | -1.3 | ·
O=C(COC(=O)Cc1c[nH]c2ccccc12)Nc1ccc(Cl)cc1F | 0.7 | -2
CN(C(=O)COC(=O)c1ccc(Cl)cc1O)C1CCS(=O)(=O)C1 (stereo not drawn) | · | 4
COc1cccc(COC(=O)c2n[nH]c3ccccc23)c1 | · | -8
CCOC(=O)c1cc2c(C)n(-c3ccccc3)c(C)c2cc(C(=O)OCC)c1=O | 1.1 | -6

Full records as entered above. Order of screens: MgrA-DNA mod | S aureus helic
C=C1N(c2cccc(Cl)c2)C(=O)OC1(C)C is listed as · | 13
O=c1ccc(=O)n(CNc2nccs2)[nH]1 is listed as -0.2 | 8
CCOC(=O)N1CCC(N(CCN(C)C)C(=S)Nc2cc(C)ccc2C)CC1 is listed as · | 8
CC(=C1C(=O)c2ccccc2C1=O)N1CCN(c2ccccn2)CC1 is listed as -2.2 | 1
CCOc1ccc(OCCOn2nnc3ccccc32)cc1 is listed as · | -8

(cont.)
SMILES | MgrA-DNA mod | S aureus helic
Cc1nn(C(=O)CCCC(=O)O)c2ccccc12 | · | 22
CC(C)CCN(Cc1ccco1)C(=O)c1oc(=O)c2ccccc2c1-c1ccccc1 | -0.3 | 17
Cc1nc(-c2ccccc2)sc1-c1nnnn1-c1ccc(Cl)cc1 | -2.0 | ·
O=C(NCCn1ccc2ccccc21)C1CC1 | · | -25
S=C(Nc1cccc(Cl)c1)Nc1cccc(Cl)c1 | 0.0 | ·
CCN(c1ccccc1)S(=O)(=O)c1ccc(-n2cnc3cc(C)c(C)cc32)nc1 | · | -11
COc1ccc(Cn2ccc3nc(C)c(C(=O)NCc4ccccc4)cc3c2=O)cc1 | · | 9
O=C1/C(=C/c2cn[nH]c2-c2ccc(F)cc2)CS/C1=C\c1cn[nH]c1-c1ccc(F)cc1 | 7.2 | -10
NC(CC(=O)Nc1ccc(Cl)cc1)C(=O)O (stereo not drawn) | · | -16
CC(=O)C1C(=O)CC(c2ccc(Cl)cc2)CC1=O (stereo not drawn) | 1.3 | ·
CC(C)NC(=S)NCCc1ccncc1 | -1.5 | ·
CCOc1ccc(CNc2ccc(N3CCCC3)cc2)cc1 | 2.3 | 15
OC1(c2ccccc2)CCN(Cc2ccccc2)[C@@H]2CCCC[C@@H]21 (stereo partly drawn) | -2.4 | 21
Cc1onc(-c2ccccc2)c1C(=O)OCc1ccc(Cl)cc1 | · | -12
CCCc1cc(O)c2c(C)cc(=O)oc2c1 | 1.5 | 5
Cc1ccc(CNC(=S)NCCO)cc1 | 0.2 | ·
O=C(NC1CCCCC1)N1CCn2cccc2C1Cc1ccccc1 (stereo not drawn) | · | -23
Cc1cccc(Cl)c1OCCN1CCN(C)CC1 | · | 7
CCCCCCCCCCC/C=C\C/C=C\CCCC(=O)O | 1.9 | ·
O=C(NCCc1ccc(Cl)cc1)c1ccc2c(c1)ncn2C1CCCC1 | -5.0 | 12
CC1(C)NC(=O)N(c2ccc([N+](=O)[O-])c(C(F)(F)F)c2)C1=O | -0.2&6.0 | ·
Cc1ccc(S(=O)(=O)C2(C(=O)NC3CCCCC3)CC2)cc1 | -0.3 | -10
O=C(Nc1ccccc1)Nc1ccc(Cl)cc1SCc1ccccc1 | 1.6 | ·
CCOC(=O)c1ccc(NC(=O)Cn2cc(C(=O)CC)c3ccccc32)cc1 | -1.9 | 7
COc1ccccc1C(CCN)c1ccco1 (stereo not drawn) | · | 13
SMILES | MgrA-DNA mod | S aureus helic
O=C(NC1(C(F)(F)F)Oc2ccccc2O1)C(F)(F)F | · | -13
CCCc1c(O)c2ccccc2[nH]c1=O | 3.4 | 16
CCOC(=O)N1CCN(C(=O)c2ccc(CS(=O)(=O)c3ccccc3OC)o2)CC1 | · | 7
C=CCn1c(SCCC(=O)O)nnc1-c1cccs1 | -0.9 | 11
O=C(c1nc(-c2cccnc2)no1)N1CCOCC1 | -1.2 | 3
O=C(/C=C\Nc1ccccn1)c1ccc(Cl)cc1 | 1.5 | 5
O=c1cc(CO)oc(C(Nc2cccc(C(F)(F)F)c2)c2ccccn2)c1O (stereo not drawn) | · | -19

Bioassay records deposited in PubChem BioAssay by ICCB-Longwood Screening Facility, Harvard Medical School.
